WNV protease inh = inhibitors of West Nile virus NS2B-NS3 protease. WNV NS2B-NS3 protease, fluorogenic substrate Ex360/Em465; stronger effect = lower value. z-score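 (tested at a level between 10 and 100 µM)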. 0.18% of 65,000 active. AID 577;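 active = z-score at -3 or under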;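 note: score is relative to mean and spread of the compound wells of a plate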
Target sequence (P06935 1371-1501 limits assumed): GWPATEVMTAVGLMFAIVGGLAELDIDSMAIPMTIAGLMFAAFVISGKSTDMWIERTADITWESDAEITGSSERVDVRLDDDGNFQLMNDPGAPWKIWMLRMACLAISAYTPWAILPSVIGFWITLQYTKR
Target sequence (P06935 1502-1679 limits assumed): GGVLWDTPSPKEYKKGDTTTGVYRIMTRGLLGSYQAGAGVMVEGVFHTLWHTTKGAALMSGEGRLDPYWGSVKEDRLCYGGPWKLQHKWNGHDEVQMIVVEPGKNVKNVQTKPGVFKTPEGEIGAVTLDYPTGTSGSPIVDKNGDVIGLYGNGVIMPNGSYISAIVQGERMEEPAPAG
MT1-MMP reporter = MT1-MMP gene expression reporter suppression – cell-based, luciferase reporter, luminescence (AID 618); MT1-MMP promoter luciferase reporter cells, luminescence; calls from a first round at 10 µM; hits with a dose series show EC50 in µM; 0.62% of 87,000 active;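 active = over half of the reporter light lost at 10 µM or EC50 under 50 µM; inactive = the rest and hits that failed the dose series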;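 note: actives suppress MT1-MMP promoter-driven transcription so potencies describe inhibitors; HT1080 fibrosarcoma cells; overnight exposure; toxic or luciferase-blocking compounds were not removed from the actives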
Hsc70 = Hsc70 inhibitors, probe displacement, primary screen, biochemical, fluorescence polarization (AID 568); Hsc70 fluorescence polarization, probe displacement; higher % means a stronger effect; strong numbers were not always called active; 83,000 tested, under 10 active; displacement, % at 20 µM; hits with a dose series show IC50 in µM;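 active = displacement above 50% without optical interference and an IC50 on retest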;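 note: ATPase domain with a fluorescein-tagged ATP probe; 0% = vehicle and 100% = excess ADP; read after one hour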
Active calls of the source: *.

The opening ten entries (preview)
How did COc1ccc(CCN2CNc3c(c(=O)n(C)c(=O)n3C)C2)cc1 do in these assays?
WNV protease inh: -0.42; MT1-MMP reporter: inactive; Hsc70: 0.1%

Results for CCC(CC)NC(=O)c1cc(OC)c(OC)c(OC)c1 ?
WNV protease inh: -0.58; MT1-MMP reporter: inactive; Hsc70: -3.1%

Results for COc1cccc2c(=O)n(CC(=O)N3CCCc4ccccc43)ccc12 ?
WNV protease inh: 1.6; MT1-MMP reporter: inactive; Hsc70: 6.1%

Results for C[C@H]([C@@H](N)C(=O)N[C@@H](C(=O)O)[C@@H]1O[C@H](n2ccc(=O)[nH]c2=O)[C@@H](O)[C@H]1O)[C@@H](O)c1ccc(O)cn1 ?
WNV protease inh: -0.39; MT1-MMP reporter: inactive; Hsc70: 0.1%

How did O=C(NCc1ccco1)c1cc2n(n1)C(C(F)(F)F)CC(c1ccc(Br)cc1)N2 (stereo not given) do in these assays?
WNV protease inh: -0.67; MT1-MMP reporter: inactive; Hsc70: 6.9%

Results for O=c1oc2ccccc2c(N2CCCC2)c1CN1CCCC1 ?
MT1-MMP reporter: inactive; Hsc70: -0.6%

How did COc1cc(C(=O)NCCC(=O)NCc2ccc3c(c2)OCO3)cc(OC)c1OC do in these assays?
WNV protease inh: 1.4; MT1-MMP reporter: inactive; Hsc70: 6.8%

Results for Clc1cccc(-c2cc3nc4c(c(N5CCOCC5)n3n2)CCCC4)c1 ?
WNV protease inh: -1.5; MT1-MMP reporter: inactive; Hsc70: -4.2%

Results for COc1cc(OC)cc(C(=O)Nc2cccc(N3CCCC3)c2)c1 ?
WNV protease inh: -1.5; MT1-MMP reporter: inactive; Hsc70: -15%

How did O=S(=O)(c1ccc(Cl)cc1)N1CCC(N2CCCCCC2)CC1 do in these assays?
WNV protease inh: 0.39; MT1-MMP reporter: inactive; Hsc70: 3.8%

The whole of this part (from the top)
How did COc1ccc(CCN2CNc3c(c(=O)n(C)c(=O)n3C)C2)cc1 do in these assays?
WNV protease inh: -0.42; MT1-MMP reporter: inactive; Hsc70: 0.1%

Results for CCC(CC)NC(=O)c1cc(OC)c(OC)c(OC)c1 ?
WNV protease inh: -0.58; MT1-MMP reporter: inactive; Hsc70: -3.1%

Results for COc1cccc2c(=O)n(CC(=O)N3CCCc4ccccc43)ccc12 ?
WNV protease inh: 1.6; MT1-MMP reporter: inactive; Hsc70: 6.1%

Results for C[C@H]([C@@H](N)C(=O)N[C@@H](C(=O)O)[C@@H]1O[C@H](n2ccc(=O)[nH]c2=O)[C@@H](O)[C@H]1O)[C@@H](O)c1ccc(O)cn1 ?
WNV protease inh: -0.39; MT1-MMP reporter: inactive; Hsc70: 0.1%

How did O=C(NCc1ccco1)c1cc2n(n1)C(C(F)(F)F)CC(c1ccc(Br)cc1)N2 (stereo not given) do in these assays?
WNV protease inh: -0.67; MT1-MMP reporter: inactive; Hsc70: 6.9%

Results for O=c1oc2ccccc2c(N2CCCC2)c1CN1CCCC1 ?
MT1-MMP reporter: inactive; Hsc70: -0.6%

How did COc1cc(C(=O)NCCC(=O)NCc2ccc3c(c2)OCO3)cc(OC)c1OC do in these assays?
WNV protease inh: 1.4; MT1-MMP reporter: inactive; Hsc70: 6.8%

Results for Clc1cccc(-c2cc3nc4c(c(N5CCOCC5)n3n2)CCCC4)c1 ?
WNV protease inh: -1.5; MT1-MMP reporter: inactive; Hsc70: -4.2%

Results for COc1cc(OC)cc(C(=O)Nc2cccc(N3CCCC3)c2)c1 ?
WNV protease inh: -1.5; MT1-MMP reporter: inactive; Hsc70: -15%

How did O=S(=O)(c1ccc(Cl)cc1)N1CCC(N2CCCCCC2)CC1 do in these assays?
WNV protease inh: 0.39; MT1-MMP reporter: inactive; Hsc70: 3.8%

How did Cn1c(SCc2ccc(F)cc2)nnc1-c1ccccn1 do in these assays?
WNV protease inh: -0.98; MT1-MMP reporter: inactive; Hsc70: 1.8%

What do the screens show for `COc1ccc(-c2noc(C3CCCN(C(=O)CCc4ccccc4)C3)n2)cc1` (stereo not given)?
WNV protease inh: 0.5; MT1-MMP reporter: inactive; Hsc70: -2.6%

Results for COc1ccc(N(CC(=O)O)S(=O)(=O)c2cccnc2)cc1 ?
WNV protease inh: -0.55; MT1-MMP reporter: inactive; Hsc70: -3.7%

How did CCOC(=O)C1=C(C)N=c2s/c(=C3/C(=O)Nc4ccccc43)c(=O)n2C1c1ccc(C)cc1 (stereo not given) do in these assays?
MT1-MMP reporter: inactive; Hsc70: 5.2%

How did CN(C)S(=O)(=O)c1ccc(S(=O)(=O)N(CC(=O)Nc2ccccc2)Cc2ccco2)cc1 do in these assays?
WNV protease inh: -1.4; MT1-MMP reporter: inactive; Hsc70: -11%

How did Cc1ccnc(SCCn2c(N3CCOCC3)nc3c2c(=O)n(C)c(=O)n3C)n1 do in these assays?
WNV protease inh: 0.11; MT1-MMP reporter: inactive; Hsc70: -6.6%

How did Cc1nc2nc(Cc3ccccc3)[nH]n2c(=O)c1Cc1ccccc1 do in these assays?
WNV protease inh: 0.62; MT1-MMP reporter: inactive; Hsc70: -3.5%

What do the screens show for `c1n[nH]c(NCc2ccc3c(c2)OCO3)n1`?
WNV protease inh: -0.51; MT1-MMP reporter: inactive; Hsc70: -2.1%

How did C=CCNc1nc(N2CCCC2)nc2ccccc12 do in these assays?
WNV protease inh: -0.47; MT1-MMP reporter: inactive; Hsc70: 0.9%

What do the screens show for `COc1ccc(NS(=O)(=O)c2ccc3c(c2)CCC(=O)N3)c(OC)c1`?
WNV protease inh: -0.93; MT1-MMP reporter: inactive; Hsc70: -3.4%

What do the screens show for `COc1cc(-c2nc(S(=O)(=O)c3ccc(C)cc3)c(N(C)C)o2)cc(OC)c1OC`?
WNV protease inh: -0.89; MT1-MMP reporter: inactive; Hsc70: -4.7%

Results for CC12CCC(C(=O)Nc3ccccc3Br)(C/C1=N\O)C2(C)C (stereo not given) ?
MT1-MMP reporter: inactive; Hsc70: 2.7%

Results for Cn1c(=O)c2c(nc(SCC(=O)c3cccs3)n2Cc2ccc(F)cc2)n(C)c1=O ?
WNV protease inh: -0.65; MT1-MMP reporter: inactive; Hsc70: -17%

How did COCCC(=O)NC12CC3CC(CC(C3)C1)C2 do in these assays?
WNV protease inh: 1.2; MT1-MMP reporter: inactive; Hsc70: 3.6%

Results for COc1ccccc1N1CCN(C(c2cccs2)C(C)NS(=O)(=O)c2ccccc2)CC1 (stereo not given) ?
WNV protease inh: -0.42; MT1-MMP reporter: inactive; Hsc70: 1.4%

How did CCOC(=O)c1cc2n(c1N)-c1ccccc1C2=O do in these assays?
WNV protease inh: -1.7; MT1-MMP reporter: inactive; Hsc70: 132%

Results for CCN(CC)C(=O)c1sc2nc(-c3cccs3)cc(-c3ccc(Cl)cc3)c2c1N ?
MT1-MMP reporter: inactive; Hsc70: 5.5%

What do the screens show for `CC1CCCCN1C(=O)Cn1cc(C(=O)c2ccco2)c2ccccc21` (stereo not given)?
WNV protease inh: -0.91; MT1-MMP reporter: inactive; Hsc70: 3.0%

Results for O=C(CN1C(=O)C2C3C=CC(C3)C2C1=O)NCC1COc2ccccc2O1 (stereo not given) ?
WNV protease inh: -0.38; MT1-MMP reporter: inactive; Hsc70: 1.6%

Results for CCOc1ccc(CN2C(=O)CCC2(C)C(=O)NCc2cccnc2)cc1 (stereo not given) ?
WNV protease inh: 0.08; MT1-MMP reporter: inactive; Hsc70: 1.0%

What do the screens show for `COc1cc(-n2c(C)nc3cc(C(=O)NCc4ccco4)ccc32)cc(OC)c1OC`?
WNV protease inh: -0.4; MT1-MMP reporter: inactive; Hsc70: 5.8%

Results for CCCCCCC1CC(CSc2ncn[nH]2)OC1=O (stereo not given) ?
WNV protease inh: -0.45; MT1-MMP reporter: inactive; Hsc70: -0.3%

How did COC(=O)c1c(C)noc1-c1cc(C)on1 do in these assays?
WNV protease inh: 0.8; MT1-MMP reporter: inactive; Hsc70: 1.8%

What do the screens show for `CC1Cn2c(nnc2-c2cccc(Cl)c2)S1` (stereo not given)?
WNV protease inh: 0.12; MT1-MMP reporter: inactive; Hsc70: 1.9%

What do the screens show for `CSc1nsc(SCC(=O)N2CCCc3ccccc32)n1`?
WNV protease inh: -0.75; MT1-MMP reporter: inactive; Hsc70: -8.1%

How did COc1ccccc1C(=O)N1CCN=C1SC do in these assays?
WNV protease inh: -0.62; MT1-MMP reporter: inactive; Hsc70: 0.7%

Results for CC(C)C1Cc2c(sc3c2c(=O)n(-c2ccccc2)c2nncn32)CO1 (stereo not given) ?
WNV protease inh: 0.35; MT1-MMP reporter: inactive; Hsc70: -1.6%

How did CCOC(=O)c1c(-c2ccc(C)o2)csc1NC(=O)CN1CCN(CC)CC1 do in these assays?
WNV protease inh: -0.06; MT1-MMP reporter: inactive; Hsc70: -2.4%

What do the screens show for `Cc1cccc(N(CC(=O)N2CCCC2)S(=O)(=O)c2ccccc2)c1`?
WNV protease inh: -1.2; MT1-MMP reporter: inactive; Hsc70: -2.2%

Results for CCC(Oc1ccccc1)C(=O)N1CC(C)CC(C)C1 (stereo not given) ?
WNV protease inh: -0.39; MT1-MMP reporter: inactive; Hsc70: -1.1%

Results for O=C(O)c1nc(N2CCCCC2)ncc1Cl ?
MT1-MMP reporter: inactive; Hsc70: 0.7%

Results for O=C(COc1ccc(S(=O)(=O)NC2CCCCC2)cc1)NCCC1=CCCCC1 ?
MT1-MMP reporter: inactive; Hsc70: 6.3%

How did O=C(c1ccc(-c2ccccc2)cc1)N1CCN(Cc2ccccn2)CC1 do in these assays?
WNV protease inh: 0.26; MT1-MMP reporter: inactive; Hsc70: -6.6%

Results for CCOC(=O)Cc1c(C)nc2cc(-c3ccc(Cl)cc3)[nH]n2c1=O ?
WNV protease inh: 3.4; MT1-MMP reporter: inactive; Hsc70: 4.9%

How did COc1ccc2oc(=O)c(C(=O)N3CCc4ccccc43)cc2c1 do in these assays?
WNV protease inh: -1.3; MT1-MMP reporter: inactive; Hsc70: -5.8%

What do the screens show for `O=C(NCCc1ccccc1)C1CCN(S(=O)(=O)c2cccc3nsnc23)CC1`?
WNV protease inh: -1.1; MT1-MMP reporter: inactive; Hsc70: -5.3%

How did Cc1ccccc1OCC(O)Cn1c(NCCN(C)C)nc2c1c(=O)n(C)c(=O)n2C (stereo not given) do in these assays?
WNV protease inh: -0.2; MT1-MMP reporter: inactive; Hsc70: 0.9%

What do the screens show for `CCC(C)NC(=O)C1c2ccccc2C(=O)N1Cc1cc(OC)ccc1OC` (stereo not given)?
WNV protease inh: 1.2; MT1-MMP reporter: inactive; Hsc70: -1.2%

Results for Cc1nc2ncnn2c(C)c1CCC(=O)Oc1ccccc1 ?
WNV protease inh: 1.3; MT1-MMP reporter: inactive; Hsc70: -5.8%

What do the screens show for `C=CCn1c(NCc2cc(C)ccc2O)nc2ccccc21`?
WNV protease inh: 0.7; MT1-MMP reporter: inactive; Hsc70: 4.3%

Results for CSc1ccc(C2Nc3ccccc3-c3cc(C)nn32)cc1 (stereo not given) ?
WNV protease inh: -0.28; MT1-MMP reporter: inactive; Hsc70: -1.6%

How did O=C(NC1CCCCCCC1)c1cnccn1 do in these assays?
WNV protease inh: -0.71; MT1-MMP reporter: inactive; Hsc70: 1.6%

Results for CCC(C)(C)NC(=O)CN(C(=O)CNS(=O)(=O)c1ccccc1)c1ccccc1 ?
WNV protease inh: 0.78; MT1-MMP reporter: inactive; Hsc70: 6.2%

How did COc1ccc(OC)c(C(=O)c2ccc(C(=O)N3CCCCC3)cc2)c1 do in these assays?
WNV protease inh: -0.5; MT1-MMP reporter: inactive; Hsc70: -2.6%

Results for CCCCOc1ccc(-c2nnn(CC(=O)c3c[nH]c4ccccc34)n2)cc1 ?
MT1-MMP reporter: inactive; Hsc70: -29%

How did CN(C1=NC(=O)C(CC(=O)Nc2ccc(Br)cc2)S1)c1ccc(O)cc1 (stereo not given) do in these assays?
WNV protease inh: -0.52; MT1-MMP reporter: inactive; Hsc70: -5.0%

Results for CCOC(=O)c1[nH]c2ccc(OC)cc2c1NC(=O)c1ccc2c(c1)OCO2 ?
WNV protease inh: 0.61; MT1-MMP reporter: inactive; Hsc70: 1.2%

What do the screens show for `COc1ccc2c(c1)c(CCN1C(=O)c3ccccc3C1=O)cn2C(=O)c1ccco1`?
WNV protease inh: 0.29; MT1-MMP reporter: inactive; Hsc70: -1.7%

Results for CC1=C(C(=O)Nc2ccccc2)C(c2ccc(C)o2)N2C(=O)CSC2=N1 (stereo not given) ?
WNV protease inh: 0.02; MT1-MMP reporter: inactive; Hsc70: -8.5%

How did Cc1cnc(NC(=O)CN2C(=O)C3CC=CCC3C2=O)s1 (stereo not given) do in these assays?
WNV protease inh: 0.31; MT1-MMP reporter: inactive; Hsc70: -3.5%

What do the screens show for `COC(=O)CNc1nc(OC)nc(N(C)C)n1`?
WNV protease inh: -0.82; MT1-MMP reporter: inactive; Hsc70: 0.1%

Results for Cc1nn(C)cc1CNC(=O)c1cc2n(n1)C(C(F)(F)F)CC(c1cccs1)N2 (stereo not given) ?
WNV protease inh: 0.63; MT1-MMP reporter: inactive; Hsc70: -2.6%

What do the screens show for `Nc1c(C(=O)NCc2ccc(F)cc2)c2nc3ccccc3nc2n1CCCN1CCOCC1`?
MT1-MMP reporter: inactive; Hsc70: 1.6%
